Calb FLC = C. albicans growth inhibition with fluconazole, primary screen, CaCi-2 strain, Alamar Blue fluorescence; 300,000 tested, 0.57% active; AID 1979, 2009; C. albicans CaCi-2 (fluconazole-resistant clinical isolate) + fluconazole, 48 h; growth inhibition, % (concentration not given with the values);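 active = most replicates above 75%; inconclusive = exactly half above 75%; inactive = most below 75%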;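 note: all wells also contain fluconazole at 8 µg/ml as a sub-toxic cotreatment; 0% = median of DMSO wells and 100% = median of geldanamycin control wells; wells of about 8 µL received 7.5 nL stock; the first replicate is given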
Vif TR-FRET = inhibitors of Vif binding to APOBEC3G peptide, primary screen, biochemical, TR-FRET, GST-Vif 1-94, biotin-A3G peptide, dose response retest (AID 1117319); 260,000 tested, 0.57% active; Virion infectivity factor (Human immunodeficiency virus type 1 group M subtype B (isolate …; inhibition, %, or IC50 in µM where a hit was titrated; TR-FRET GST-Vif / biotin-A3G peptide binding; higher % means a stronger effect; test concentration not given here; strong numbers were not always called active;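 active = above the screen mean plus three standard deviations and confirmed in dose response; inconclusive = results disagree or hit not tested in dose response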;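 note: Vif residues 1-94 fused to GST binding biotinylated APOBEC3G peptide 110-148; 0% = full assay without inhibitor and 100% = GST in place of GST-Vif; retest series ran down from 100 µM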
Beta cell apopt = inhibitors of cytokine-induced beta cell apoptosis, primary screen, luminescence | INS-1E cytokine-induced death, ATP luminescence, 48 h; percent of positive-control rescue, neutral wells zero | protection from apoptosis, % (test concentration not listed) | 300,000 tested, 0.8% active;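 active = all replicates at 75% or more, or half of them and the mean; inconclusive = half reach 75% but not the mean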;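 note: 0% = cytokine-treated negative control wells and 100% = positive control rescue; higher means more ATP so stronger rescue from cytokine killing; wells of about 40 µL received 100 nL stock; the first replicate is given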
MLL AF4-AF9 inh = inhibitors of AF4 peptide binding to AF9, primary screen, biochemical, AlphaScreen, biotin-AF4 peptide, FLAG-AF9, single point | Protein AF-9 (Homo sapiens), P42568 | inhibition, % at 10 µM | 350,000 tested, 0.47% active;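 active = every replicate reaching a set inhibition limit, whatever the replicate mean, cut at about 25% in these data; inconclusive = mean inhibition reaches that limit but some replicates miss it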;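 note: 0% = plate neutral control median and 100% = total signal loss; the record names both 10 and 1 µM as test concentration; the first replicate is given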
Target sequence (P42568 whole entry, looked up): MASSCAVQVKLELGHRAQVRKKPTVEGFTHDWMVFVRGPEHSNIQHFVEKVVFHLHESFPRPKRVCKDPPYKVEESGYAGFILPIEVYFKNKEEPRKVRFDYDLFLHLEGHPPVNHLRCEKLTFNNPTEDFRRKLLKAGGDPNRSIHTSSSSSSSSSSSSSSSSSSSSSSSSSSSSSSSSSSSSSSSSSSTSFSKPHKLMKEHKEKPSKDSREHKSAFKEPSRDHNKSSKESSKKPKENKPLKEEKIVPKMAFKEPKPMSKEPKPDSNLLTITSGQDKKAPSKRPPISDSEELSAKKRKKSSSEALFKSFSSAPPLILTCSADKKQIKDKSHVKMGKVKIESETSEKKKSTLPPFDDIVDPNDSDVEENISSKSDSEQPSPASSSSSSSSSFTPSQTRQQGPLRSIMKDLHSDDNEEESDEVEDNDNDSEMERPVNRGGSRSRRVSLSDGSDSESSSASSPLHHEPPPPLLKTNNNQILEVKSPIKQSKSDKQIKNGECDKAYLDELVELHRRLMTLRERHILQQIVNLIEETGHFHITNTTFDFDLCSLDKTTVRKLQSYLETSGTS
T cruzi repl = inhibitors of intracellular T. cruzi growth, primary screen, luminescence, NIH3T3 host cells; T. cruzi beta-gal in NIH3T3, 90 h; inhibition, % (concentration not given with the values); 300,000 tested, 1.4% active; AID 1885, 2009;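 active = mean inhibition across valid replicates above about 55%, limit read from the data; inconclusive = mean below that limit but half or more replicates reach it; inactive = mean below it, under half of replicates reach it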;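 note: signal also drops with host cell toxicity which is not excluded here; 0% = plate median of DMSO wells and 100% = zero luminescence signal; higher percent means less beta-gal luminescence so fewer parasites; stock transfer was 50 nL into about 50 µL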
Ecoli rRNA inh = reduced GFP signal of wild-type E. coli, primary screen, bacterial rRNA inhibitor project, GFP/RFP fluorescence, OD600, single point; E. coli WT GFP vs humanized-ribosome RFP mutants, 24 h; active compounds read low; DMSO median 0, no signal -100; GFP signal change (wild-type ribosome), % (test concentration not listed); 350,000 tested, 1.6% active;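 active = significant combined selectivity score with lowered wild-type GFP, culture density cut under 30%, mutant RFP and density less affected; inactive = any of these conditions unmet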; note: one replicate is shown; some compounds called inactive have numbers as strong as hits
RanGTP-Imp inh = inhibitors of RanGTP-importin-beta interaction, primary screen, biochemical, FRET, CFP-Ran, YFP-importin-beta, homogeneous; inhibition, % (no concentration beside the values); 300,000 tested, 1.1% active; cell-free CFP-Ran/YFP-importin-beta FRET ratio; Ran GTPase (GTP-bound) - importin-beta complex; AID 2216, 2009;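 active = most replicates above 15%; inconclusive = exactly half above 15%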;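 note: 0% = DMSO wells and 100% = Ran loaded with GDP instead of GTP; wells of about 40 µL received 100 nL stock; the first replicate is given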
A1 inh = caspase 3/7 activation in MEF A1-2A-BIM cells, primary screen, A1 inhibitor project, cell-based, luminescence, HTS; Caspase-Glo 3/7 luminescence, 3 h; percent of clofoctol response, vehicle zero; caspase activation, % (no concentration beside the values); 330,000 tested, 0.066% active; AID 2462, 2010;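 active = over half of replicate activation scores above 10%, or exactly half above 10 with the replicate mean above 10; inconclusive = replicate mean below 10 yet half the replicates above 10; inactive = over half of replicates below 10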;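 note: wells of about 30 µL received 50 nL stock; many hits fall short of the cut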
Ecoli rRNA inh OD600 = also measured in Ecoli rRNA inh; calls as there; OD600 change, %; measured here: OD600 growth;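 optical density of the mix in the first replicate; 0 = DMSO median and -100 = no signal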
Ecoli rRNA inh RFP = recorded beside Ecoli rRNA inh, whose call it bears; RFP signal change, %; measured here: RFP humanized mutant strains;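 first replicate; 0 = DMSO median and -100 = no signal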
* hit, by the source's call; ? = inconclusive; nt = no result given. Some of the compounds tested (hit frequency here may not be typical).

SMILES | Calb FLC | Vif TR-FRET | Beta cell apopt | MLL AF4-AF9 inh | T cruzi repl | Ecoli rRNA inh | Ecoli rRNA inh OD600 | Ecoli rRNA inh RFP | RanGTP-Imp inh | A1 inh
COc1ccc(-c2c(-c3ccccc3OC)sc3ccccc23)cc1OC | -3 | nt | -1 | 2.9 | 5 | 11 | 13 | -7.2 | ? | 0.1
Cc1ccc(C(=O)Nc2ccccn2)cc1S(=O)(=O)N1CCOCC1 | -7 | nt | -1 | 8.5 | 1 | 8 | 13 | -1.5 | -1.3 | 1.0
COc1ccc2nc(SCC(=O)N(C)CC(=O)Nc3ccc(F)cc3)[nH]c2c1 | nt | -3% | 1 | -2.5 | 9 | -1 | -5 | -1.5 | -3.6 | -2.3
O=C(O)CSc1nnc(CSc2nc3ccccc3s2)n1-c1ccccc1 | -6 | 3% | -2 | -3.5 | -5 | -9 | -4 | 0.6 | -3.0 | -0.5
CCOC(=O)C1=C(COC(=O)c2ccc(Cl)cc2[N+](=O)[O-])NC(=O)NC1C (stereo unspecified) | 3 | 7% | nt | 11 | -9 | 6 | 10 | 0.7 | 1.6 | 0.2
CC1CCN(CCc2nc3cc(NC(=O)Nc4ccccc4)ccc3n2C)CC1 | 2 | -1% | -12 | nt | -18 | nt | nt | nt | -1.3 | 1.2
Cc1cccc2cc(CN(Cc3cccnc3)C(=O)c3ccncc3)c(=O)[nH]c12 | -1 | 0% | -9 | nt | -11 | nt | nt | nt | -1.9 | 0.1
N#CCSc1nc2ccccc2c(=O)n1C1CCCCC1 | -10 | -8% | -2 | -3.1 | -17 | 2 | 1 | 0.4 | -0.6 | -0.5
NC(=O)C1=C[C@@H](c2csc3ccccc23)C[C@@H](OCCCCO)O1 | -16 | nt | 0 | -1.1 | -6 | -3 | -9 | 5.5 | 0.5 | 0.4
CCOc1ccccc1C1C(C#N)=C(N)Oc2cc(N)ccc21 (stereo unspecified) | -14 | 6% | -11 | nt | 7 | nt | nt | nt | 139* | 0.4
C/C(=N/Nc1nc(-c2ccccc2)c(CC(=O)O)s1)c1ccccc1 | -4 | ? | nt | -13 | 50 | -13 | 5 | 8.5 | 1.1 | nt
CN(C)CCn1c(=N)n(CC(O)c2ccc(Cl)c(Cl)c2)c2ccccc21 (stereo unspecified) | ? | 8% | 4 | 5.5 | 43 | 0 | -3 | -1.1 | 1.8 | -0.3
Cc1nn(C)cc1S(=O)(=O)Nc1ncccn1 | 4 | nt | -5 | -1.2 | 10 | 17 | 8 | 5.4 | 8.8 | 0.4
Cc1ccc2c(c1)-c1ncc(C(=O)c3cc(Br)ccc3O)cc1CO2 | 18 | 4% | 5 | 7.3 | 13 | -19 | -21 | -6.1 | 0.3 | 0.3
O=C(COc1ccc(OCc2ccccc2)cc1)NN=C1CCCC1 | -3 | -14% | -3 | -1.3 | 2 | 19 | 9 | 1.1 | -1.4 | -2.4
O=C(Nc1cc(Cl)ccc1N1CCOCC1)c1ccc2c(c1)OCCO2 | -31 | 5% | 6 | -2.0 | -10 | -15 | -6 | -1.5 | 5.3 | -1.2
COc1cccc2sc(=NC(=O)CCS(=O)(=O)c3ccc(C)cc3)n(C)c12 | 1 | -1% | nt | -2.6 | 22 | -4 | -6 | 5.2 | 4.3 | 0.9
CC1(C)Cc2cccc(OCC(=O)N3CCN(S(=O)(=O)c4ccccc4F)CC3)c2O1 | ? | 6% | 8 | nt | -7 | nt | nt | nt | -1.7 | 0.1
O=C(CN1CCN(c2nc(-c3ccc(Cl)cc3)cs2)CC1)NCc1ccco1 | 19 | 19% | nt | nt | 0 | nt | nt | nt | -0.1 | nt
O=C1C2C3C=CC(CC3)C2C(=O)N1c1ccc(Br)cc1[N+](=O)[O-] (stereo unspecified) | 5 | -11% | 1 | -0.2 | 3 | 10 | 15 | 2.1 | 2.6 | -1.4
C/C=C/C(=O)N1CC2(CC(c3cccc(NC(=O)/C(C)=C/C)c3)=NO2)C[C@H]1C(N)=O (stereo partly specified) | -8 | -2% | 1 | nt | -3 | 5 | 0 | -5.1 | 0.2 | 1.5
C#CCOCCOCCOCCNc1nc(N2CCN(C(=O)Cn3cc(CCCN=C(N)N)nn3)CC2)nc(N2CCN(C(=O)[C@H](C(C)C)n3cc(CCO)nn3)CC2)n1 | 2 | ? | -3 | 3.1 | -9 | 2 | 6 | -0.3 | 5.9 | 2.0
Cc1ccc(Sc2ccc(CN3CCCC3)cc2[N+](=O)[O-])cc1 | -38 | 12% | 5 | 31* | 88* | -21 | -21 | -1.4 | -2.0 | 0.3
O=C(COC(=O)c1ccccc1-n1cnnn1)c1ccc(Br)cc1 | 2 | -28% | -3 | 0.6 | 2 | 11 | 5 | 1.9 | 0.0 | 1.0
O=C(NC12CCC(O)C(SC1)/C2=N/O)c1ccccc1 (stereo unspecified) | -11 | -2% | -7 | nt | -5 | nt | nt | nt | 8.1 | -0.2
SMILES | Calb FLC | Vif TR-FRET | Beta cell apopt | MLL AF4-AF9 inh | T cruzi repl | Ecoli rRNA inh | Ecoli rRNA inh OD600 | Ecoli rRNA inh RFP | RanGTP-Imp inh | A1 inh
O=C(/C=C/c1ccco1)OCn1nnc2ccccc2c1=O | -2 | 30% | -6 | 0.0 | -11 | 4 | -3 | -0.8 | 1.0 | -0.5
Cc1ccccc1C(=O)NC1CCN(Cc2nnnn2C(C)(C)C)CC1 | -3 | 6% | -1 | -0.6 | -1 | 8 | 10 | 1.9 | ? | 0.5
O=C1Nc2cc(S(=O)(=O)N3CCCC3)ccc2N2CCCC12 (stereo unspecified) | 5 | -2% | 3 | nt | -2 | nt | nt | nt | -1.2 | -1.3
COc1ccc(NC(=O)C2CC(c3ccc(OC)c(OC)c3)=NO2)cc1OC (stereo unspecified) | 16 | 0% | 2 | nt | 13 | nt | nt | nt | -0.7 | -0.6
Cc1cc(N2CCN(c3nc4ccccc4s3)CC2)n2ncnc2n1 | -2 | 5% | 87* | nt | -45 | nt | nt | nt | 0.5 | 0.1
Cc1nnc(SCC(=O)N(Cc2ccccc2)C(C)C)n1-c1ccccc1 | -12 | 2% | -9 | nt | 0 | nt | nt | nt | -1.1 | 0.9
Cc1ccc(N/C=C(\[N+](=O)[O-])S(=O)(=O)c2ccccc2)cc1 | -39 | 1% | -5 | -1.3 | ? | -22* | -13* | -5.5* | 1.2 | -0.5
COc1cc(C(=O)Nc2nccs2)c(Br)c(OC)c1OC | -12 | -1% | 9 | nt | -8 | nt | nt | nt | -1.6 | 0.4
COc1ccc(S(=O)(=O)N2CCN(S(=O)(=O)c3ccc4c(c3)OCCO4)CC2)cc1C | 4 | -5% | nt | nt | 12 | nt | nt | nt | 1.5 | nt
Cc1ccc(C)c(NC(=S)NCCc2ccc(S(N)(=O)=O)cc2)c1 | -9 | nt | -1 | nt | -6 | -5 | -2 | -8.2 | 4.8 | -0.4
O=c1c2ccccc2nnn1Cc1cccc2ccccc12 | 49 | -6% | 2 | 7.8 | 9 | nt | nt | nt | -1.8 | -0.6
Cc1ccn2c(=O)nc(SCC(=O)NCc3ccc4c(c3)OCO4)nc2c1 | 2 | 1% | -8 | -1.8 | 3 | 9 | 8 | -1.7 | -2.2 | 0.3
CC1(C)Cc2nc(-c3ccccc3)nc(SCC(O)CO)c2CO1 (stereo unspecified) | -8 | 6% | -5 | 0.3 | 9 | 2 | -1 | -0.2 | 1.4 | -1.3
Cc1c(NC(=O)c2ccc3c4c(cccc24)CC3)c(=O)n(-c2ccccc2)n1C | 3 | -1% | -3 | nt | 3 | nt | nt | nt | -2.1 | -0.1
Cc1ccc(C)c(NC(=O)CN(C)C(=O)/C=C/c2ccco2)c1 | -15 | 15% | 1 | -3.8 | 8 | 22 | 16 | 5.1 | nt | -6.9
COc1cc(OC)c(C2C(C#N)=C(N)OC3=C2C(=O)CC(C)C3)cc1OC (stereo unspecified) | -6 | 2% | 1 | nt | -17 | 2 | 4 | -1.4 | 3.0 | -1.2
O=C(CC1SC(N2CCOCC2)=NC1=O)Nc1ccccc1Cl (stereo unspecified) | nt | nt | -9 | -23 | nt | 5 | 6 | -2.3 | nt | 0.3
Cc1cc2cc(CCNC(=O)CC(C)(C)C)c(=O)[nH]c2cc1C | nt | 1% | 2 | -5.0 | nt | 13 | 19 | 0.2 | nt | 0.2
CC1=NN(c2ccccc2)C(=O)/C1=C/c1ccc(-c2ccc(C)c(C(=O)O)c2)o1 | -2 | nt | 4 | 4.2 | 6 | -1 | -5 | 1.0 | 0.5 | -5.5
CN(C)S(=O)(=O)c1cccc(NC(=S)Nc2cc(Cl)cc(Cl)c2)c1 | -27 | -2% | -2 | nt | 43 | nt | nt | nt | -6.4 | 1.0
COc1ccc(/C=N/NS(=O)(=O)c2ccccc2)cc1OC(=O)c1ccc(C)cc1 | -2 | -1% | 3 | nt | 14 | nt | nt | nt | -0.1 | 1.3
CC(=O)Nc1ccc(NC(=O)C(C)OC(=O)C2(c3ccc(Cl)cc3)CCCC2)cc1 (stereo unspecified) | -7 | nt | 12 | 1.1 | -2 | 0 | 6 | 0.7 | -1.7 | -0.9
Cn1c(N)c(C(=O)CSc2nc3ccccc3[nH]2)c(=O)n(C)c1=O | 9 | -8% | 0 | 2.5 | 3 | 8 | 11 | 6.3 | -2.2 | -0.3
COc1ccc2[nH]cc(C(=O)CN3CCCCC3)c2c1 | -2 | -6% | -3 | nt | -8 | nt | nt | nt | -0.9 | 0.9
O=[N+]([O-])c1cccc(/C=N/Nc2nc(NCc3ccccc3)nc(N3CCOCC3)n2)c1O | 52 | 12% | 12 | 19 | 41 | 6 | 10 | 0.5 | 1.5 | 0.0
CCOC(=O)CCN(Cc1cccs1)S(=O)(=O)c1ccc(Cl)cc1 | 0 | -7% | -8 | 0.4 | 3 | -31 | -33 | -13 | 1.4 | -2.0
Cc1cc(=O)cc(C)n1-c1ccc(Cl)cc1 | -6 | -1% | -6 | -1.2 | -20 | 6 | -1 | 0.2 | 3.1 | 1.2
CCCCc1ccc(NS(=O)(=O)c2cccc(C(=O)N3CCCN(C)CC3)c2)cc1 | nt | -10% | 7 | 3.2 | nt | nt | nt | nt | nt | 0.1

3 entries from above, sorted by the value under Vif TR-FRET, largest number first:
| compound | Vif TR-FRET |
| --- | --- |
| Cc1ccc(C)c(NC(=O)CN(C)C(=O)/C=C/c2ccco2)c1 | 15% |
| COc1ccc(S(=O)(=O)N2CCN(S(=O)(=O)c3ccc4c(c3)OCCO4)CC2)cc1C | -5% |
| CCOC(=O)CCN(Cc1cccs1)S(=O)(=O)c1ccc(Cl)cc1 | -7% |
